MLL AF4-AF9 inh = blocks AF4 peptide binding to human AF9. P42568. AlphaScreen, biotin-AF4 peptide binding to FLAG-AF9. inhibition, % at 10 µM. 0.47% of 350,000 active;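 active = every replicate reaching a set inhibition limit, whatever the replicate mean, cut at about 25% in these data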;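 note: 0% = plate neutral control median and 100% = total signal loss; the record names both 10 and 1 µM as test concentration; the first replicate is given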
Target sequence (P42568 whole entry, looked up): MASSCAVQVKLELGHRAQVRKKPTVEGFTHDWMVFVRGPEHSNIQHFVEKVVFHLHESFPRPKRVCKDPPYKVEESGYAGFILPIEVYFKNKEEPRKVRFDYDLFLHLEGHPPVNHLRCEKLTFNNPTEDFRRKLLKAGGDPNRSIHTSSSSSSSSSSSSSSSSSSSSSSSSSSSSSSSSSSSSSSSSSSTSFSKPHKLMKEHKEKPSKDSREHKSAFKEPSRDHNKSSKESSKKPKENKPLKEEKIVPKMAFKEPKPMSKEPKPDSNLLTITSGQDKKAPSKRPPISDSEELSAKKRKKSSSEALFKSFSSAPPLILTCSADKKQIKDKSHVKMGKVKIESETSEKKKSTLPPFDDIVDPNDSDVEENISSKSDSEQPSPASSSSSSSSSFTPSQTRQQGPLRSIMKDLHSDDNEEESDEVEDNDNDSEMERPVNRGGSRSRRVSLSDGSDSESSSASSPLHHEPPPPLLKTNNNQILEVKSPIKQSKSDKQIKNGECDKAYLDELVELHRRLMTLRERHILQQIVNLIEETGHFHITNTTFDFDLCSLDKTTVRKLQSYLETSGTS
FGF22 binding = FGF22 (human) thermal shift binding. recombinant FGF22 thermal shift, SYPRO orange fluorescence; percent of sucrose octasulfate shift, DMSO zero. calls only at 9.99 µM. 1.5% of 340,000 active;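 active = melting point raised past a set limit in the mean and every replicate; three in four hits are not shown here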
Target sequence (Q9HCT0 whole entry, looked up): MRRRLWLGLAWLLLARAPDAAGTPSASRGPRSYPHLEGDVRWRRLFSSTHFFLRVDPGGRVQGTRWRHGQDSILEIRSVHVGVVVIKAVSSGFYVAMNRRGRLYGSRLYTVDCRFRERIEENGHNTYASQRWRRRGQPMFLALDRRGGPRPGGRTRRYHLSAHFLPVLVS
UCH37 inh = blocks the human deubiquitinase UCH37 | Q9Y5K5 | purified proteasome/UCH37, Ub-AMC cleavage fluorescence | inhibition, % (no concentration beside the values) | 0.33% of 330,000 active | AID 588478;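 active = mean of two replicates above 20%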;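 note: 0% = compound-free wells with enzyme and 100% = wells lacking proteasome; stock transfer was 100 nL into about 20 µL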
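Assay system: Proteasome-bound UCH37. Buffer or medium: pH 7.4 Tris-HCl (50 mM) with ovalbumin, ATP-MgCl2, DTT. Incubation: 30 min preincubation with enzyme, 25 min cleavage at room temperature. Measured by: fluorescence, ex 355 nm, em 460 nm. Read-out basis: percent inhibition. Control set: wells without proteasome as full block, compound-free enzyme plus substrate as uninhibited.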
E coli growth = inhibitors of Escherichia coli growth; OD600, 23 h; stronger effect = lower value; OD600 absorbance (concentration not given with the values); 0.21% of 330,000 active; AID 1053175;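 active = OD600 absorbance below the run mean of sample wells minus 3.6 SD, in any replicate, cut at about 0.56 in these data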;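 note: stock transfer was 300 nL into about 60 µL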
A1 inh = inhibitors of the anti-apoptotic protein A1, read as caspase activation. MEF A1-2A-BIM cells, Caspase-Glo 3/7 luminescence, 3 h; percent of clofoctol response, vehicle zero. caspase activation, % (test concentration not listed). 0.066% of 330,000 active;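 active = over half of replicate activation scores above 10%, or exactly half above 10 with the replicate mean above 10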;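 note: wells of about 30 µL received 50 nL stock; many hits fall short of the cut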
T cruzi inh = T. cruzi replication inhibition | T. cruzi beta-gal in NIH3T3, luminescence, 90 h | inhibition, % (test concentration not listed) | 1.4% of 300,000 active | AID 1885;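 active = mean inhibition across valid replicates above about 55%, limit read from the data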;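 note: signal also drops with host cell toxicity which is not excluded here; 0% = plate median of DMSO wells and 100% = zero luminescence signal; higher percent means less beta-gal luminescence so fewer parasites; stock transfer was 50 nL into about 50 µL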
Beta apoptosis = beta cell apoptosis inhibition. INS-1E cytokine-induced death, ATP luminescence, 48 h; percent of positive-control rescue, neutral wells zero. protection from apoptosis, % (no concentration beside the values). 0.8% of 300,000 active. AID 435005;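 active = all replicates at 75% or more, or half of them and the mean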;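 note: 0% = cytokine-treated negative control wells and 100% = positive control rescue; higher means more ATP so stronger rescue from cytokine killing; wells of about 40 µL received 100 nL stock; the first replicate is given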
rRNA inh HTS = inhibits bacterial ribosomal RNA function over humanized ribosomes | E. coli WT GFP vs humanized-ribosome RFP mutants, fluorescence, 24 h; stronger effect = lower value; DMSO median 0, no signal -100 | GFP signal change (wild-type ribosome), % (no concentration beside the values) | 1.6% of 350,000 active | AID 720706;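 active = significant combined selectivity score with lowered wild-type GFP, culture density cut under 30%, mutant RFP and density less affected; inactive = any of these conditions unmet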; note: one replicate is shown; some compounds called inactive have numbers as strong as hits
rRNA inh HTS OD600 = recorded beside rRNA inh HTS, whose call it bears; OD600 change, %; measured here: OD600 growth;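 optical density of the mix in the first replicate; 0 = DMSO median and -100 = no signal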
rRNA inh HTS RFP = recorded beside rRNA inh HTS, whose call it bears; RFP signal change, %; measured here: RFP humanized mutant strains;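 first replicate; 0 = DMSO median and -100 = no signal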
Starred values were filed as active, the others as inactive; i = inactive; nt = not tested or not shown; & = joins results of further samples.

SMILES	E coli growth	MLL AF4-AF9 inh	rRNA inh HTS	T cruzi inh	rRNA inh HTS OD600	rRNA inh HTS RFP	UCH37 inh	Beta apoptosis	FGF22 binding	A1 inh
COc1ccc(C(=O)NCc2ccon2)cc1OC1CCN(C(C)C)CC1	0.63	-0.8	13	11	13	-1.1	-1.4	-2	i	0.9
O=C1CC(NCc2ccccc2)C(=O)N1c1ccc(F)cc1 (stereo not given)	0.65	-8.8	-1	nt	5	2.5	-0.8	nt	i	nt
OC1(c2ccc(F)cc2)CCN(Cc2cccnc2)CC1	0.62	-1.4	6	9	10	0.5	3.3	-2	i	0.2
Cc1nn(-c2ccccc2)c(C)c1NC(=O)c1ccc(S(=O)(=O)N2CCCC2)cc1	0.69	nt	nt	-5	nt	nt	0.8	6	nt	0.3
Cc1cc(C=C2C(=O)c3ccccc3C2=O)c(C)n1-c1ccc(C(=O)O)cc1	0.66	5.2	-20	-11	-15	-1.5	8.3	-3	i	-0.6
O=C(CN1C(=O)NC2(CCOc3ccccc32)C1=O)Nc1ccc2c(c1)OCCO2 (stereo not given)	0.77	nt	nt	-5	nt	nt	2.5	-4	nt	-0.1
COCCN(C)Cc1nc(C(c2ccccc2)c2ccccc2)no1	0.71	-0.5	-1	-11	9	1.4	-0.3	-4	i	-0.5
O=C(C1CCN(S(=O)(=O)c2cccnc2)CC1)N1CCN(c2ccc(Cl)cc2)CC1	0.7	2.2	-1	11	3	-7.3	5.2	30	i	-0.3
CC(=O)c1c(C)[nH]c(C(=O)OCC(=O)NCC(C)C)c1C	0.68	1.0	11	-13	15	4.6	3.9	-6	i	0.0
COc1ccccc1NC(=O)c1cc(OC)c(OC)cc1[N+](=O)[O-]	0.64	-0.5	3	-1	-6	2.9	3.9	-1	i	-0.4

SMILES	E coli growth	MLL AF4-AF9 inh	rRNA inh HTS	T cruzi inh	rRNA inh HTS OD600	rRNA inh HTS RFP	UCH37 inh	Beta apoptosis	FGF22 binding	A1 inh
CC(=O)n1cc([C@H]2C=C(C(=O)Nc3ccccc3)O[C@@H](OCCCCO)C2)c2ccccc21	nt	4.8&2.6	3	-6	11	6.9	2.0	12	i	0.9
COc1ccccc1C(=O)NCCC(=O)NCCc1ccccc1	0.69	-2.5	2	-7	3	-1.5	-4.6	-2	i	0.1
COC(=O)Cc1ccc(NC(=S)NCc2ccccc2OC)cc1	0.68	0.5	-16	-29	-11	4.9	2.2	-6	i	-0.3
O=C(COC(=O)Cc1ccsc1)Nc1ccccc1	0.67	-0.7	11	27	13	0.7	-1.7	2	i	-0.9
CCOc1ccc(C2C(C#N)=C(N)SC(N)=C2C#N)cc1OCC	0.73	nt	nt	8	nt	nt	6.4	-1	nt	-0.7
COc1ccccc1CCNC(=O)Nc1cccc([N+](=O)[O-])c1	0.64	6.6	-20*	11	0.5*	6.0*	2.2	-1	i	-0.4
C/C(=C\C#N)n1nc(C)cc1N	0.68	nt	nt	-11	nt	nt	4.8	-5	nt	-0.6
CC(C)(C)c1ccc(-c2cc(-c3ccccc3O)[nH]n2)cc1	0.65	1.0	-12	16	-5	6.0	0.4	12	i	-1.9
Cc1ccccc1N1CCN(C2CCCN(C(=O)c3cc[n+]([O-])cc3)C2)CC1 (stereo not given)	0.66	-13	5	23	13	-1.1	4.9	-8	i	-0.6
CCOC(=O)N1CCC(NC(=O)c2cc(COc3ccc(F)cc3Cl)on2)CC1	0.69	-1.8	5	3	12	0.2	6.4	-2	i	1.7

SMILES	E coli growth	MLL AF4-AF9 inh	rRNA inh HTS	T cruzi inh	rRNA inh HTS OD600	rRNA inh HTS RFP	UCH37 inh	Beta apoptosis	FGF22 binding	A1 inh
OC(CN1CCOCC1)CN(c1ccccc1)c1ccccc1 (stereo not given)	0.61	nt	nt	-2	nt	nt	1.2	-3	nt	0.8
CCOc1ccc(NC(=O)CC2C(=O)N(C)C(=S)N2Cc2ccc3c(c2)OCO3)cc1 (stereo not given)	0.66	nt	nt	-3	nt	nt	4.1	1	nt	-0.8
COc1ccc(C(CC(=O)NCc2ccccc2)C(C)C)cc1 (stereo not given)	0.67	-6.5	5	nt	6	4.2	1.2	-4	i	-0.2
COC(=O)CS(=O)(=O)c1nnc([C@H](Cc2ccccc2)NC(=O)OC(C)(C)C)o1	0.72	nt	nt	4	nt	nt	3.1	35	nt	0.5
CCOC(=O)c1ccc(NC(=O)CSc2nccn2C)cc1	0.72	nt	nt	5	nt	nt	4.2	0	nt	-1.0
O=C(COC(=O)c1cc[n+]([O-])cc1)Nc1ccc(Cl)cc1[N+](=O)[O-]	0.72	1.7	11	12	6	0.5	2.9	-2	i	-0.2
COc1ccccc1CNC(=O)[C@H](C)N1C(=O)N2CCc3c([nH]c4ccccc34)[C@@]2(C)C1=O	0.75	0.3	-22	-5	-41	-19	3.5	7	i	0.8
CCN(CC(=O)Nc1c(F)cccc1F)C(=O)c1ccc(Cl)c(S(=O)(=O)N2CCCCC2)c1	0.72	-3.1	-4	13	-16	-0.1	4.1	2	i	1.8
COc1cccc(-c2csc(N3CCN(C(=S)Nc4ccccc4Cl)CC3)n2)c1	0.67	nt	nt	8	nt	nt	0.1	-3	nt	0.5
Cc1cc(/C=C2/SC(=O)N(CC(=O)N3CCCC3)C2=O)ccc1N1CCOCC1	0.69	-0.8	16	13	1	-1.6	9.9	-1	i	1.1

SMILES	E coli growth	MLL AF4-AF9 inh	rRNA inh HTS	T cruzi inh	rRNA inh HTS OD600	rRNA inh HTS RFP	UCH37 inh	Beta apoptosis	FGF22 binding	A1 inh
O=C(CCc1ccccc1)n1nc(-c2ccco2)nc1SCc1ccccc1	0.76	-0.3	-3	nt	-5	2.0	3.5	nt	i	nt
NC(=O)COC(=O)c1sc2ccccc2c1Cl	0.7	-3.8	4	-16	10	2.2	4.1	0	i	-0.3
Cc1ccc(NC(=S)NNC(=S)Nc2cccc(C(F)(F)F)c2)cc1	nt	1.2	-4	44	-1	2.2	nt	14	i	-0.2
CCOC(=O)C1CCCN(C(=O)c2ccc3c(c2)N(Cc2ccccc2)C(=O)c2ccccc2S3=O)C1 (stereo not given)	0.66	2.2	10	9	13	0.6	3.0	2	i	-0.3
CC1CN(S(=O)(=O)c2cccc(C(F)(F)F)c2)CN1C(=O)N1CCOCC1 (stereo not given)	0.65	1.0	nt	-12	nt	nt	1.3	-4	i	0.4
Cc1ccc(-c2csc3nc[nH]c(=S)c23)cc1C	0.67	nt	nt	12	nt	nt	5.0	20	nt	0.1
COCCC(=O)N1CCC(Oc2ccc(C(=O)NCCc3ccccn3)cc2)CC1	nt	-3.1	7	2	10	-4.5	nt	-4	i	0.1
CCOc1ccc(S(=O)(=O)N2CCCCC2)c2ccccc12	0.69	nt	nt	4	nt	nt	1.2	6	nt	0.5
CC(CCN1CCN=C1Nc1ccccc1)c1ccccc1 (stereo not given)	0.7	0.3	10	11	2	0.3	1.6	0	i	0.0
CN(C)CCCNC(=S)N1CCn2c(nc3ccccc32)C1	0.64	-2.3	2	-9	12	-4.2	0.2	1	i	0.7

SMILES	E coli growth	MLL AF4-AF9 inh	rRNA inh HTS	T cruzi inh	rRNA inh HTS OD600	rRNA inh HTS RFP	UCH37 inh	Beta apoptosis	FGF22 binding	A1 inh
CCCCCCCCC(=O)NNC(=O)c1c(O)c2ccccc2n(CCC)c1=O	0.7	0.0	-6	3	14	-1.8	-0.1	-1	i	3.3
OC1CCCN(Cc2ccc3c(c2)Cc2ccccc2-3)C1 (stereo not given)	0.74	nt	nt	45	nt	nt	1.2	-4	nt	0.2
O=C1C(=O)c2c(C(=O)c3ccccc3)coc2-c2ccccc21	0.65	15	-44*	58*	-26*	-12*	9.5	101*	i	-0.5
O=C(c1ccc(F)cc1)N1CCCC(C(=O)N2CCN(c3ccccc3)CC2)C1 (stereo not given)	0.67	0.5	-6	5	-5	1.8	2.7	-4	i	0.2
O=S(=O)(Nc1ccc2c3c(cccc13)CC2)c1ccc(F)cc1	0.8	nt	nt	-5	nt	nt	3.1	nt	nt	0.1
O=S(=O)(NCc1ccc(Cl)cc1)c1cccc2cccnc12	0.68	-2.4	-12	2	-1	-8.6	1.2	2	nt	0.4
N#CC1(NC(=O)CSc2n[nH]c(-c3ccccc3)n2)CCCCC1	0.69	-0.9	-3	-5	-5	-1.0	-0.1	0	i	-0.4
O=C(CSc1ccc(Cl)cc1)Nc1nnc(-c2cccc([N+](=O)[O-])c2)s1	0.8	-4.7	-6	-9	-5	-7.1	5.8	-5	i	-0.4
CCOc1ccccc1NC(=O)NS(=O)(=O)c1ccc(C)cc1	0.71	nt	-3	-7	4	-1.6	-2.8	0	nt	0.2
COc1ccccc1CNC(=O)COc1ccc(C)nc1[N+](=O)[O-]	0.68	-2.9	3	16	-2	-4.3	0.6	-7	i	0.3

SMILES	E coli growth	MLL AF4-AF9 inh	rRNA inh HTS	T cruzi inh	rRNA inh HTS OD600	rRNA inh HTS RFP	UCH37 inh	Beta apoptosis	FGF22 binding	A1 inh
Cc1ccc2[nH]c(=O)c(COC(=O)c3cccs3)cc2c1	0.7	nt	nt	5	nt	nt	-40	0	nt	-0.1
NC(=O)c1ccc(NC(=O)CCCNC(=O)c2ccc(Cl)cc2)cc1	0.68	1.0	13	-13	11	0.9	4.4	-7	i	-0.5
CC(NC(=O)c1cccc2ccccc12)c1ccc2c(c1)CCCC2 (stereo not given)	0.75	nt	nt	-17	nt	nt	5.6	0	nt	0.0
CCOC(=O)c1[nH]c2ccc(OC)cc2c1NC(=O)CN1CCSCC1	0.73	nt	nt	nt	nt	nt	-88	-1	nt	-0.5
Cc1nnc(NC(=O)C2CC(=O)N(c3ccccc3)C2)s1 (stereo not given)	0.71	-0.9	17	-14	7	1.8	5.3	-10	i	0.5
Cc1ccc(C(=O)CSc2nnc(COc3ccccc3)o2)cc1	0.69	0.1	16	-9	11	-0.5	0.5	-5	i	-0.1
O=C(c1ccc(NS(=O)(=O)c2ccc(Cl)cc2)cc1)N1CCOCC1	0.69	3.1	3	-8	3	-5.2	0.9	-7	i	0.8

Bioassay records deposited in PubChem by several laboratories.

An excerpt; count on the stated rates, not on these rows.
